KCNQ2 block – KCNQ2 potassium channel inhibitors, primary screen, cell-based, CHO-K1, FluxOR thallium flux, B-score (AID 2156) | 20 min; active compounds read low; only compounds with negative scores are shown here; some inactives read as strong as hits | B-score at 10 µM | hit rate 1.1% among 310,000;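 active = fluorescence ratio B-score at most minus 3 library SDs, with starting brightness B-score within 2 library SDs, cut at about -5.5 in these data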
Target sequence (O88943 whole entry, looked up): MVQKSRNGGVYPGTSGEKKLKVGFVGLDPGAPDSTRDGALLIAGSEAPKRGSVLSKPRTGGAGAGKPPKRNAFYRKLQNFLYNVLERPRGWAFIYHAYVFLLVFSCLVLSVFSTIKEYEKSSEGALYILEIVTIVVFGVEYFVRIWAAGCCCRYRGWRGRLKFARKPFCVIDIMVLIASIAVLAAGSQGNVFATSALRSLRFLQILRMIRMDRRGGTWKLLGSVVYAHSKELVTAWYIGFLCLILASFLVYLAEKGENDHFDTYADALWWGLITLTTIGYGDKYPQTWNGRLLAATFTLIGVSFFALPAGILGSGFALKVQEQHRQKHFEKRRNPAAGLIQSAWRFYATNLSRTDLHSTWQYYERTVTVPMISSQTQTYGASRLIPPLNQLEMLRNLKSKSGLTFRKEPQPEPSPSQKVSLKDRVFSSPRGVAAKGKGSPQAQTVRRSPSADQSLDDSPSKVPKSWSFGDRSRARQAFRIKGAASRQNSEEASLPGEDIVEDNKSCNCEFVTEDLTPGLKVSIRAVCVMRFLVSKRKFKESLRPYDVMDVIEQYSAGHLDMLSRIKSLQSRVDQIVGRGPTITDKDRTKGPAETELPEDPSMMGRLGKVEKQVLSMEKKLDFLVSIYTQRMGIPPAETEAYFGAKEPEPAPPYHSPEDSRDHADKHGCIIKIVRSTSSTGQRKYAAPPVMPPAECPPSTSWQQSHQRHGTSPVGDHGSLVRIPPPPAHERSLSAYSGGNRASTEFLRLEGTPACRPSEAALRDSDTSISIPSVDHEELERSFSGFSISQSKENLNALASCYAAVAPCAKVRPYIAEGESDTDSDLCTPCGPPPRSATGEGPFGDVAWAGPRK
KCNQ2 block baseline – further read-out of KCNQ2 block, marked with its call; B-score; measured here: initial fluorescence intensity artifact check;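 brightness before thallium and not channel activity; 0 = typical well and far values either way flag optical interference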
* = called active by the depositor; i = inactive. Not all compounds are listed; the hit share may differ from the screen's.

cpd	canonical_smiles	KCNQ2 block	KCNQ2 block baseline
1	CCOC(=O)N1CCN(CC(=O)Nc2ccc(F)cc2)CC1	i	2.1
2	OC1(C(F)(F)F)CC(O)(C(F)(F)F)n2nc(-c3ccccc3)cc2N1 (stereo not given)	i	-0.19
3	Cc1ccccc1NC(=O)Cc1c[nH]c2ccccc12	i	0.25
4	COc1cc2c(cc1OC)C(C)N(C(=O)C1COc3ccccc3O1)CC2 (stereo not given)	i	-1.4
5	CC(C)(C)n1nc2c(c1NC(=O)c1cccc(C(F)(F)F)c1)CS(=O)C2 (stereo not given)	i	-1.6
6	Cc1cc(C)cc(OCC(=O)Nc2nc3ccc([N+](=O)[O-])cc3s2)c1	i	0.02
7	CN1CCCC(OC(=O)/C(C#N)=C/c2ccccc2)C1 (stereo not given)	i	1.9
8	Cc1cc(-c2ccc(Cl)cc2)oc(=O)c1NC(=O)c1ccccc1	i	-0.26
9	Cc1ccc(S(=O)(=O)N(CC(=O)N2CCN(c3ccccc3F)CC2)C2CCCCC2)cc1	i	0.46
10	O=S(=O)(NCC1CCCO1)c1ccc(-c2ccc(S(=O)(=O)NCC3CCCO3)cc2)cc1 (stereo not given)	i	-0.02
11	O=C(NCCCN1CCCC1=O)c1cc2nc(-c3ccco3)cc(C(F)(F)F)n2n1	i	-0.03
12	COc1cc(C(=O)NCC(c2ccco2)N2CCc3ccccc3C2)cc(OC)c1OC (stereo not given)	i	-1.6
13	Cc1ccc(CSc2ccc(-c3cccs3)nn2)cc1	i	0.99
14	Cc1cccc(-n2c(N)c(-c3nc4ccccc4n3C)c3nc4ccccc4nc32)c1	i	-0.18
15	CCOc1ccc(C2Nc3ccccc3C(CC)(CC)O2)cc1 (stereo not given)	i	-2.5
16	CN(CC(=O)Nc1ccccc1Br)C(=O)c1cccc([N+](=O)[O-])c1	i	-0.27
17	Cc1[nH]nc(NCCO)c1[N+](=O)[O-]	i	-0.73
18	CC(NC(=O)CN(c1cccc(C(F)(F)F)c1)S(=O)(=O)c1ccc(Cl)c([N+](=O)[O-])c1)c1ccccc1 (stereo not given)	i	-0.04
19	COc1ccc(C)cc1NC(=O)CN(C)S(=O)(=O)c1ccc2c(c1)n(C)c(=O)c(=O)n2C	i	1.2
20	CCOc1ccc(C2NC(=O)NC(C)=C2[N+](=O)[O-])cc1OC (stereo not given)	i	0.01

Some values from above:
In KCNQ2 block baseline, cpd 14 has the entry -0.18
In KCNQ2 block baseline, cpd 17 has the entry -0.73
In KCNQ2 block baseline, cpd 3 has the entry 0.25
In KCNQ2 block baseline, cpd 12 has the entry -1.6
In KCNQ2 block baseline, cpd 8 has the entry -0.26
In KCNQ2 block baseline, cpd 13 has the entry 0.99
In KCNQ2 block baseline, cpd 4 has the entry -1.4

New compounds follow:
cpd	canonical_smiles	KCNQ2 block	KCNQ2 block baseline
21	O=C(c1ccc(N2CCOCC2)cc1)c1cccs1	i	0.78
22	CCCCC1=CC2=C(c3ccco3)C(=O)C(C)(OC(=O)c3ccc(OC)cc3)C(=O)C2=CN1C1CC1 (stereo not given)	i	-1.7
23	N/C(=N/OC(=O)c1ccccc1F)c1nonc1N	i	1.1
24	O=C(c1ccccc1)N1CCCc2ccccc21	i	0.01
25	Cc1ccc(S(=O)(=O)Nc2ccc3c(c2)OCCO3)cc1C	i	-0.93
26	CCOC(=O)c1c(-c2ccccc2)oc2ccc(O)c(CN3CCCC3)c12	i	0.42
27	O=C(CCn1c(=O)[nH]c2ccsc2c1=O)NCc1ccc(F)cc1	i	-0.12
28	CC(C)(Cc1ccc(O)cc1)NC(=O)CC(=O)N=Nc1c(O)[nH]c2ccc(Br)cc12	i	-0.32
29	CCS(=O)(=O)N1Cc2ccccc2CC1C(=O)NC(C)C12CC3CC(CC(C3)C1)C2 (stereo not given)	i	2.7
30	CCCn1c(=O)c(C(=O)NCc2ccccc2OC)c(O)c2ccccc21	-7.6*	-0.01*
31	CCCCC1=CC2=C(c3ccco3)C(=O)C(C)(OC(=O)c3ccc(OC)cc3)C(=O)C2=CN1CCCCO (stereo not given)	i	1.6
32	CC(C)(C)c1ccc(OCC(=O)NNC(=S)NC(=O)c2ccco2)c(Br)c1	i	1.2
33	O=C(Nc1ccc(S(=O)(=O)N2CCCCCC2)cc1)c1ccc(Br)o1	i	-0.93
34	Cc1cccc(NC(=S)N(Cc2cccs2)Cc2cc3cc(C)ccc3[nH]c2=O)c1	i	-0.38
35	O=C(c1ccccc1)c1ccc(OCCCN2CCCCC2)cc1	i	-0.44
36	COc1ccc(CNS(=O)(=O)NCc2ccc(OC)c(OC)c2)cc1OC	i	-0.2
37	COCCNC(=O)C(c1ccc(C)o1)N(C(=O)c1snc(C(N)=O)c1N)c1ccc(C)c(C)c1 (stereo not given)	i	0.09
38	O=C(NN=C1CCCC1)c1[nH]c2ccc(Cl)cc2c1-c1ccccc1	i	-0.56
39	CCCCCOC(=O)CSc1nnc(-c2cc(OC)c(OC)c(OC)c2)o1	i	1.1
40	CC(C)(C)NCC(=O)N/N=C/c1ccc(OCc2ccccc2)cc1	i	0.05
41	O=C(NC1CCCCC1)N(Cc1nc2ccccc2c(=O)[nH]1)C1CCCCC1	i	-0.19
42	CC(C)c1nc(CNC(=O)CC2C(=O)NCCN2Cc2cccc(F)c2F)cs1 (stereo not given)	i	-0.21
43	COc1ccc(C(=O)n2cnc3ccccc32)cc1Br	i	-0.26
44	Nc1nc(C2CCOCC2)cs1	i	1.2
45	Cc1ccsc1/C=N/n1c(=S)[nH]nc(C)c1=O	i	1.5
46	COC(=O)c1cc2occc2n1Cc1ccc(Cl)cc1	i	-0.57
47	O=C(C1CCN(S(=O)(=O)c2cccc([N+](=O)[O-])c2)CC1)N1CCOCC1	i	-0.45
48	CCn1c(C)c(C)c2cc(C(=O)N3CCN(c4ccccc4)CC3)ccc21	-6.9*	0.6*
49	O=C(NCC(c1cccs1)N1CCc2ccccc21)c1ccccc1 (stereo not given)	i	-0.04
50	CC(C(=O)N1CCN(Cc2ccccc2)CC1)c1ccc([N+](=O)[O-])cc1 (stereo not given)	i	-1.2
51	O=C(CSc1ncccn1)NCc1ccc(Cl)cc1	i	1.2
52	O=C(CCCCn1c(=O)c2ccccc2n(Cc2ccc(F)cc2Cl)c1=O)NCc1ccco1	i	-0.6
53	CCOc1ccc(NC(=O)c2ccc(NC(=O)COC(=O)Cc3ccc(OC)cc3)cc2)cc1	i	1.3
54	COc1cc(NC(=O)c2cccnc2)c(Cl)cc1NC(=O)c1ccccc1	i	-0.17
55	COc1ccc(C2Nc3ccccc3C(=O)N2c2ccc(Cl)cc2)cc1Cn1cc([N+](=O)[O-])cn1 (stereo not given)	i	0.23
56	COc1ccc(/C=C\C(=O)NCC(=O)N/N=C/c2ccc(O)cc2O)cc1	i	2.7
57	CCC(C(=O)Nc1cnccn1)c1ccccc1 (stereo not given)	i	-0.26
58	CCCN1C(=O)/C(=C/c2ccco2)SC1=Nc1ccc(OC)cc1	i	-3.4
59	CC1C/C(=N\NC(=S)NC(C)C)CC(C)(C)C1 (stereo not given)	i	1.3
60	COc1cc(C(=S)N2CCOCC2)cc(OC)c1OC(=O)c1cccc(C)c1	i	0.13

Next section, starting with the last 2 of the part before.
cpd	canonical_smiles	KCNQ2 block	KCNQ2 block baseline
59	CC1C/C(=N\NC(=S)NC(C)C)CC(C)(C)C1 (stereo not given)	i	1.3
60	COc1cc(C(=S)N2CCOCC2)cc(OC)c1OC(=O)c1cccc(C)c1	i	0.13
61	CC(C)=C(NC(=O)c1ccccc1)C(=O)N1CCOCC1	i	-0.59
62	CC(C)/C=N/Nc1nc2c(c(=O)n(C)c(=O)n2C)n1C	i	-1.1
63	CC(C#N)Sc1nc2ccccc2c(=O)n1-c1ccccc1 (stereo not given)	i	-0.07
64	CC12CCC(C(=O)N3CCN(C(c4ccccc4)c4ccccc4)CC3)(OC1=O)C2(C)C (stereo not given)	i	-1.4
65	CC(=O)Cc1nsc(NC(=O)c2ccc(-c3ccccc3Cl)o2)n1	i	-0.79
66	COc1cnn(C(C)(C)C)c(=O)c1Cl	i	-0.43
67	CCOC(=O)CNC(=S)n1ncnc1N	i	1.8
68	CC(=O)c1c(C)[nH]c(C(=O)Nc2ccc(F)cc2F)c1C	i	-1.1
69	CSc1nsc(SC)c1C(=O)Nc1ccc(C)cc1	i	0.59
70	CCCCCn1c(Sc2ncccn2)nc2c1c(=O)[nH]c(=O)n2C	i	0.65
71	Cc1ccccc1NC(=O)c1ccc(CSc2ncccn2)cc1	i	1.4
72	O=C(O)C1CC=C(Cl)CC1C(=O)NCc1ccccc1 (stereo not given)	i	-0.23
73	O=C(N1CCN(c2ccccc2)CC1)C1(S(=O)(=O)c2ccc(Cl)cc2)CC1	i	-1.5
74	CNc1sc(C(=O)c2ccc(F)cc2)c(N)c1-c1nc2ccccc2s1	i	2
75	CC[C@@H](C)[C@@H](C(=O)N1CCN(C(=O)OC(C)(C)C)CC1)n1cc(CCCN=C(NC(=O)OC(C)(C)C)NC(=O)OC(C)(C)C)nn1	i	-0.65
76	Cc1ccnc(N2CCC(C(=O)Nc3ccc4c(c3)OCCO4)CC2)n1	i	-0.34
77	CCN(C(=O)CN1C(=O)c2ccc([N+](=O)[O-])cc2C1=O)C1CCS(=O)(=O)C1 (stereo not given)	i	-0.06
78	CCC1CN(C(=O)NCc2ccc(C)cc2)c2cc(Cl)ccc2O1 (stereo not given)	i	1.6
79	CCOc1ccc(-c2nnc(SCc3nc4ccccc4[nH]3)n2N)cc1	i	-0.36
80	COc1ccccc1C1CCCN1Cc1nc(-c2cc3c(cc2Cl)OCO3)oc1C (stereo not given)	i	0.2
81	Cc1cccc(N(CC(=O)NC(C)C)C(=O)CCC(=O)Nc2ccccn2)c1	i	1.8
82	CNC(=S)N/N=C/c1c(Cl)cccc1Cl	i	-0.66
83	COC(=O)N/N=C/c1cc(N=Nc2ccccc2)ccc1O	i	0.28
84	CC1(C)C(=O)Nc2ccccc2N1C(=O)COC(=O)C1CCCCC1	i	0.8
85	CC(=O)c1ccc(Nc2cc(C)nc3nc(C)nn23)cc1	i	4.5
86	COC(=O)c1cc(OC)c(OC)cc1NC(=O)Cc1ccccc1[N+](=O)[O-]	i	-0.29
87	Cc1ccc(C(=O)Oc2cc(C)n(C)c(=O)c2)cc1	i	1.2
88	O=C(C1CC1)N1CCN(c2ccc([N+](=O)[O-])cc2-n2cccc2)CC1	i	-0.05
89	CCSc1nncn1/N=C/c1ccc(OC)c(OC)c1	i	-0.22
90	CC(C)C(c1nnnn1CC1CCCO1)N1CCN(C2CCCC2)CC1 (stereo not given)	i	1
91	COc1ccccc1CN1C[C@@H]2C[C@@H](c3ccccc3OC)N3CCC[C@@]23C1=O	i	0.54
92	CCCCS(=O)(=O)N1CCCC(C(=O)Oc2ccccc2)C1 (stereo not given)	i	0.03
93	CCOc1ccc(Nc2cc3n(c(=O)n2)CCc2cc(OC)c(OC)cc2-3)cc1	i	-2
94	Cc1ccc(/C=c2\sc3nc(-c4cccnc4)nn3c2=O)cc1	i	-0.03
95	CN(C)c1ccc(/C=N/n2c(-c3cccnc3)n[nH]c2=S)cc1	i	1.5
96	NC(=O)c1nsc(C(=O)N(CCCN2CCOCC2)C(C(=O)NC2CCCCC2)c2ccc(Cl)cc2)c1N (stereo not given)	i	0.62
97	O=C(Nc1ccccc1O)c1csc2c1CCCC2	i	0.22
98	O=C(NCc1ccc2c(c1)OCO2)c1ccc(-c2ccc(Cl)cc2)o1	i	-0.41
99	CC(C(=O)N1CCN(Cc2ccccc2)CC1)n1ncn2cccc2c1=O (stereo not given)	i	0.62
100	O=C(Nc1nc(-c2cccs2)cs1)c1ccc(Cl)cc1	i	0.21

7 entries drawn at random from the list so far:
cpd	canonical_smiles	KCNQ2 block	KCNQ2 block baseline
86	COC(=O)c1cc(OC)c(OC)cc1NC(=O)Cc1ccccc1[N+](=O)[O-]	i	-0.29
98	O=C(NCc1ccc2c(c1)OCO2)c1ccc(-c2ccc(Cl)cc2)o1	i	-0.41
89	CCSc1nncn1/N=C/c1ccc(OC)c(OC)c1	i	-0.22
90	CC(C)C(c1nnnn1CC1CCCO1)N1CCN(C2CCCC2)CC1 (stereo not given)	i	1
83	COC(=O)N/N=C/c1cc(N=Nc2ccccc2)ccc1O	i	0.28
82	CNC(=S)N/N=C/c1c(Cl)cccc1Cl	i	-0.66
92	CCCCS(=O)(=O)N1CCCC(C(=O)Oc2ccccc2)C1 (stereo not given)	i	0.03

(cont.)
cpd	canonical_smiles	KCNQ2 block	KCNQ2 block baseline
101	Cc1ccc(S(=O)(=O)NCCCn2ccnc2)cc1	i	2
102	COc1ccc(OCc2cnc(Cl)s2)cc1	i	-1.2
103	CCC(C)[C@H](NC(=O)c1cc2cc(Cl)ccc2n1C)C(=O)N1CCC[C@H]1C(=O)O (stereo not given in full)	i	-0.06
104	Cc1nc2c(c(C)nn2-c2ccccc2)c(C)c1CCC(=O)Nc1ccc(CN2CCCC2)cc1	-6.1*	-0.03*
105	CCn1c2ccccc2n2c(=O)c(=O)n(CC(=O)Nc3ccc(C(C)C)cc3)nc12	i	0.28
106	Cc1csc(NC(=O)Cc2ccc(F)cc2)n1	i	-0.26
107	CCN=C1S/C(=C\c2cc(Br)c(O)c(OC)c2)C(=O)N1CC	i	-0.34
108	CSc1ccc(/C=N/n2nnnc2N)cc1	i	0.41
109	O=C(c1ccccc1)n1ccn(-c2ccccc2)c1=S	i	-1.4
110	CC(C)(C)NC(=O)CSc1nc2[nH]ncc2c(=O)[nH]1	i	0.29
111	COc1cccc(-c2cc(C(=O)Nc3nc4ccccc4s3)c3ccccc3n2)c1	i	-0.33
112	COc1cccc(CNC(=O)c2nnn(CC(=O)Nc3cc(C)ccc3C)c2N)c1	i	0.65
113	COCCNC(=O)c1cccc(C)c1[N+](=O)[O-]	i	1.5
114	COc1ccc(C(=O)N/N=C(\CCC(=O)O)c2ccc(C(C)(C)C)cc2)cc1OC	i	-0.86
115	O=C(NC1CC2CCC(C1)N2Cc1ccccc1)c1cccc(F)c1 (stereo not given)	i	1.7

Screening results from PubChem.
